# Screening results from PubChem BioAssay.
# VDR inhibitor: Inhibitors of the vitamin D receptor (VDR): qHTS. Vitamin D3 receptor (Homo sapiens), P11473. VDR-SRC2-3 peptide fluorescence polarization, 2 h. Potency, µM, for inactives: max response, negative = inhibition, usual class: inhibitors. 400,000 tested, 0.93% active; active = well fitted inhibition curve with a large enough effect; inconclusive = small, poorly fitted or top-dose-only effect, or another doubt; inactive = no such curve, though single readings can be large or run the other way; also: series mostly up to about 120 µM
# Target sequence (P11473 whole entry, looked up): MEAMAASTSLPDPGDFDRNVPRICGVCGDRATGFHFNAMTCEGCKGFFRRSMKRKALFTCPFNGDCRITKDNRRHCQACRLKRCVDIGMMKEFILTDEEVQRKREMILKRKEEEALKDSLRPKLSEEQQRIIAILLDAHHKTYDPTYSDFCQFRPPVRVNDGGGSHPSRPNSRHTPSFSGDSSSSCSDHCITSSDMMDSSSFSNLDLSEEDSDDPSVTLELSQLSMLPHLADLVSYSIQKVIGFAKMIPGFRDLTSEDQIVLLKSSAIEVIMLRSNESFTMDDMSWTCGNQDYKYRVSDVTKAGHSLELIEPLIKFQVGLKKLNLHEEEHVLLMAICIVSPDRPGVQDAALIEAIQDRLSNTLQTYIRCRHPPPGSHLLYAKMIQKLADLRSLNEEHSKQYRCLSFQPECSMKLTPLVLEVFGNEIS
#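 Measured by FP: displacement of SRC2-3 coactivator peptide from VDR by library compounds, following a two-hour ambient incubation.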
# The depositor's hits bear a star; ? = inconclusive; & = joins results of further samples; [ ] = another dose, or the depositor's remark. % is scaled to controls: 0 for no effect and ±100 for the full control effect; potency is read from the fitted curve at half-maximal effect.
# Start of the listing, in advance:
VDR inhibitor | SMILES
-2% | CN(C)C=Nc1nonc1-c1ccc(Cl)cc1
11% | O=C(NCCc1ccccc1)c1ccc2nc(N3CCOCC3)sc2c1
-20% | O=C1CCCC(=O)N1c1ccc(NCCOCCO)c([N+](=O)[O-])c1
3% | COC(=O)c1c(C)oc2ccc(N(C(=O)Oc3ccccc3)S(=O)(=O)c3ccccc3)cc12
0% | NS(=O)(=O)c1ccc(CNC(=O)c2cc(-c3cccs3)nc3ccccc23)cc1
-18% | COc1ccc(S(=O)(=O)Nc2cccc(S(=O)(=O)NC3=NCCC3)c2)cc1[N+](=O)[O-]
15% | Cc1ccc(NC(=O)C(=O)NCCN2CCN(C(=S)Nc3ccccc3)CC2)cc1
-20% | Brc1ccccc1-n1nnc(-c2cnc3ccccc3c2)n1
26% | CCCCOC(=O)C1=C(C)Nc2ncnn2C1c1cc(OC)ccc1OC (stereo not drawn)
? | O=C(Nc1nncs1)c1cc(S(=O)(=O)N2CCOCC2)ccc1Cl
-10% | CN=c1scc(C)n1/N=C/c1ccc(O)cc1O
-6% | Cc1ccc(-c2nnc3cccc(Cl)n23)cc1
? | Cc1ccc(/C(=N/Nc2nc3ccccc3s2)C2=C(O)c3ccccc3C2=O)cc1
-4% | CCOC(=O)C1=NN(c2ccc(Cl)cc2)/C(=C/C2=NCCc3cc(OC)c(OC)cc32)S1

# Main list, from the first entry:
VDR inhibitor | SMILES
-2% | CN(C)C=Nc1nonc1-c1ccc(Cl)cc1
11% | O=C(NCCc1ccccc1)c1ccc2nc(N3CCOCC3)sc2c1
-20% | O=C1CCCC(=O)N1c1ccc(NCCOCCO)c([N+](=O)[O-])c1
3% | COC(=O)c1c(C)oc2ccc(N(C(=O)Oc3ccccc3)S(=O)(=O)c3ccccc3)cc12
0% | NS(=O)(=O)c1ccc(CNC(=O)c2cc(-c3cccs3)nc3ccccc23)cc1
-18% | COc1ccc(S(=O)(=O)Nc2cccc(S(=O)(=O)NC3=NCCC3)c2)cc1[N+](=O)[O-]
15% | Cc1ccc(NC(=O)C(=O)NCCN2CCN(C(=S)Nc3ccccc3)CC2)cc1
-20% | Brc1ccccc1-n1nnc(-c2cnc3ccccc3c2)n1
26% | CCCCOC(=O)C1=C(C)Nc2ncnn2C1c1cc(OC)ccc1OC (stereo not drawn)
? | O=C(Nc1nncs1)c1cc(S(=O)(=O)N2CCOCC2)ccc1Cl
-10% | CN=c1scc(C)n1/N=C/c1ccc(O)cc1O
-6% | Cc1ccc(-c2nnc3cccc(Cl)n23)cc1
? | Cc1ccc(/C(=N/Nc2nc3ccccc3s2)C2=C(O)c3ccccc3C2=O)cc1
-4% | CCOC(=O)C1=NN(c2ccc(Cl)cc2)/C(=C/C2=NCCc3cc(OC)c(OC)cc32)S1
16% | O=C(Nc1ccc2c(c1)OCO2)C1CCN(S(=O)(=O)c2ccc3c(c2)OCCO3)CC1
4% | Cc1cc(C)c(S(=O)(=O)CCC(C)C)c(=O)[nH]1
-13% | COC(=O)/C=C1/N/C(=N\c2nc(C)cc(C)n2)N(c2ccc(Cl)cc2)C1=O
1% | Cn1cnc(S(=O)(=O)NC2CCN(Cc3ccccc3)CC2)c1
-13% | Cc1ccccc1NC(=O)Cc1nnc(SCc2ccc(Cl)c(Cl)c2)n1C
4% | CC(=O)c1cccc(NC(=O)C2CCCC2)c1
-4%&1% | Cc1cccc(C2=NN(c3ccccc3)[C@@H](C(=O)N3CCOC3=O)[C@@H]2c2ccc(Cl)cc2)c1
-19% | CSc1ccc(CCNC(=O)C2=C(C)C(=O)OC23CCCCC3)cc1
6% | COc1ccc(CCNC(=O)C2(C)CCC(=O)N2Cc2ccc(F)cc2Cl)cc1OC (stereo not drawn)
-23% | Cn1c2ccccc2c2cnn(CC(=O)N3CCCCC3)c(=O)c21
6% | COc1ccc(C2=NOC(C(=O)N3CCCCCC3)C2)cc1OC (stereo not drawn)

# Later entries
VDR inhibitor | SMILES
1% | Cc1ccc2c(c1)N(CC(=O)NC1CCCC(C)C1C)C(=O)c1cccnc1O2 (stereo not drawn)
-4% | CN(CCCNC(=O)c1cn(C)c2ccc(S(=O)(=O)N(C)C)cc2c1=O)c1ccccc1
9% | COC(=O)c1ccc(CSc2nc(C(F)(F)F)c3c(c2C#N)CCC3)o1
2% | O=C(NCc1ccccc1)c1ccco1
6% | O=c1cc(CNc2ccc(Br)cc2)nc2sccn12
-13% | COc1ccc(CNC(=O)[C@@H](NC(=O)C2CCN(C(=O)[C@@H](N)CCSC)CC2)C(C)C)cc1
11% | COC(=O)Cn1c2ccc(OC)cc2c2nc3ccccc3nc21
-21% | CC(C)N(C(=O)COC(=O)CNS(=O)(=O)c1ccccc1F)c1ccccc1
-5% | O=C(O)c1ccc(C2CCCCC2)cn1
23% | O=C(c1ccc(OC2CCN(C(=O)c3cccnc3)CC2)cc1)N1CCCCCC1
-5% | C[C@H]1CN([C@@H](C)CO)C(=O)Cc2cc(NC(=O)CCC(F)(F)F)ccc2O[C@H]1CN(C)Cc1ccc(C(F)(F)F)cc1
9% | Cc1cccc(OC(=O)c2cn(C)nc2C(F)(F)F)c1C
14% | O=C(Nc1ccccc1)Nc1nnc(/C=C/c2ccccc2Cl)s1
30%[activator] | O=C(COC(=O)C12CC3CC(CC(C3)C1)C2)Nc1ncc(Cl)cc1Cl
-5% | CCN(/N=C/c1cccs1)c1cc(=O)n(C)c(=O)[nH]1
6% | COc1cccc(N(CC(=O)Nc2ccc3c(c2)OCO3)S(=O)(=O)c2ccccc2)c1
-4% | COc1ccc(CC(=O)Nc2nnc(C)s2)cc1
-4% | CCOc1ccc(CCNC(=O)CCC(=O)Nc2ccc3nc(N4CCN(C)CC4)cc(C)c3c2)cc1OCC
4% | O=C(Nc1ccc(NC(=O)c2cccs2)cc1Cl)c1ccco1
-6% | CCN1C/C(=C/c2sccc2C)c2nc3ccccc3c(C(=O)O)c2C1
-29% | O=C(CC1C[C@H](C(=O)N2CCOCC2)[C@@]2(CCC3CCCC3)c3[nH]c4ccccc4c3CCN2C1=O)NCCN1CCOCC1 (stereo partly drawn)
16% | O=C(Nc1ccc(Oc2ccccc2)nc1)C1CCN(Cc2cccc(F)c2)CC1
-12% | CC(C)(C)OC(=O)N(CCc1ccccc1)Cc1ccccc1OCc1cccc(NC(=O)/C=C/c2ccccc2)c1
11% | CN(c1ccc(F)cc1)S(=O)(=O)N1CCCC(C(=O)NCCc2ccccc2)C1 (stereo not drawn)
28% | O=c1c(C/C=C/c2ccccc2)c(O)ccn1CCc1c[nH]c2ccccc12

# Overlap with the part before: two compounds, then new ones.
VDR inhibitor | SMILES
11% | CN(c1ccc(F)cc1)S(=O)(=O)N1CCCC(C(=O)NCCc2ccccc2)C1 (stereo not drawn)
28% | O=c1c(C/C=C/c2ccccc2)c(O)ccn1CCc1c[nH]c2ccccc12
-4% | COc1cc(OC)c(C(C)=O)c(O)c1C
-2% | COc1ccc(CCNc2nc(-c3ccccn3)cs2)cc1OC
11% | OCCNCc1cc(Br)ccc1OCc1ccccc1
-4% | COC(=O)C(NC(=O)C(CC(C)C)NC(=O)C1CCC(C)CC1)C(C)C (stereo not drawn)
-2% | COc1cccc(-c2cn3c(n2)sc2cc(C(=O)NCCCc4ccccc4)ccc23)c1
-24% | O=C1COc2ccc(C(=O)COC(=O)/C=C/c3cccc(F)c3)cc2N1
-11% | O=C(c1ccc([N+](=O)[O-])cc1)N(Cc1ccccc1)Cc1ccccc1
2% | O=c1c2cc(NC(=S)N3CCCC3)ccc2nc2n1CCCCC2
15% | COc1cccc(C(=O)Nc2ccc(S(=O)(=O)N(Cc3ccccc3)c3ccccc3)cc2)c1
5% | CCc1ccc(NC(=O)c2cc(S(=O)(=O)N3CCCCCC3)ccc2F)cc1
19% | COc1ccc(N(C(=O)c2cccc([N+](=O)[O-])c2)S(=O)(=O)c2ccc3c(c2)n(C)c(=O)n3C)cc1
-8% | Cn1ccc2c(OCC(=O)Nc3cc(C(F)(F)F)ccc3Cl)cccc2c1=O
-7% | C=CCC[C@H](Cc1ccc(F)cc1)C(=O)OC[C@@H](Cc1c[nH]c2ccccc12)NC(=O)[C@@H](CC=C)CC(=O)N[C@@H](CO)Cc1ccccc1
3% | Cc1ccc(Cl)c(OCCCN(C)Cc2ccccc2)c1
-14% | CCOc1ccc2nc(NCCCNC(=O)c3cc(OC)c(OC)c(OC)c3)c(C#N)cc2c1
-2% | COc1ccc(Nc2nc(C)c3ccccc3n2)cc1
-7% | O=C(c1ccc(F)cc1)N1CCC(C(=O)N2CCN(S(=O)(=O)c3cccc(F)c3)CC2)CC1
10% | O=C(O/N=C\c1ccc(N2CCCCC2)c([N+](=O)[O-])c1)c1cccc(C(F)(F)F)c1
0% | Cn1c(=O)n(CC(N)=O)c2ccccc21
-4% | OC(CNC1CCCC1)COCCOc1ccc(Br)cc1 (stereo not drawn)
3.5µM* | CS(=O)(=O)c1ccc(S(=O)CC(=O)Oc2ccc(Cl)cc2)c([N+](=O)[O-])c1 (stereo not drawn)
10% | Fc1cccc(Cl)c1CNc1n[nH]c(-c2ccco2)n1
-16% | Cc1cccc(-c2c(O)cc(=O)[nH]c2Cl)c1
5% | CCOC(=O)C1CCCN(C(=O)c2ccc(NC(=O)c3nsc4ccccc34)cc2)C1 (stereo not drawn)
0% | C[C@]1(CC/C(=C/CO)CO)[C@H](CO)CC[C@@]23COC(=O)C2=CCC[C@@H]31

# New compounds follow.
VDR inhibitor | SMILES
-7% | CCOc1ccc(S(=O)(=O)N(CC(=O)NCc2cccnc2)c2ccc(C)cc2)cc1
1% | Cc1ccccc1Cn1ccc(NC(=O)c2nn3cccnc3c2Cl)n1
-16% | O=C(O)[C@@H](c1ccccc1)N1Cc2ccccc2C1=O
8% | CC(=O)C[C@@H](O)CC(=O)[C@H]1OC(=O)[C@H](C)C/C=C\Cc2ccccc21
3% | Cc1cccc(S(=O)(=O)Nc2ccc(-c3nc4ccc(C)cc4s3)cc2)c1
-2% | Cc1cc(C(=O)N/N=C/c2ccncc2)c(C)o1
-4% | COc1cc(C)ccc1OCc1cc(C(=O)NCc2ccncc2)no1
-14% | COC(=O)[C@H]1Cc2c([nH]c3ccccc23)[C@H](c2ccccc2)N1
5% | CCOc1ccc(NC(=O)CN(C)C(=O)COc2cccc3c2OC(C)(C)C3)cc1OCC
-12% | Cc1noc(C)c1CSc1ccccc1C(=O)N1CCN(c2ccccc2)CC1
-17% | CC[C@]12c3[nH]c4ccc(Cl)cc4c3CCN1C(=O)[C@@H](CC(=O)NCCC1=CCCCC1)C[C@@H]2C(=O)N1CCN(C(=O)C2CC2)CC1
-15% | Cc1ccc(S(=O)(=O)N2CCCCC2)cc1C(=O)N(C)CCOc1ccccc1
8% | COc1ccc(N(CC(=O)N/N=C/c2ccc(N(C)C)cc2)S(=O)(=O)c2ccccc2)cc1
-6% | COc1ccc(N2CCN(C(=O)c3ccc(N(C)S(=O)(=O)c4ccc(C)cc4)cc3)CC2)cc1
3% | CN1CCN(C(=O)c2ccc3c(c2)OCCO3)CC1
-11% | COC(=O)C1=C(C)N(Cc2cccnc2)C(=O)C1
-28%&-6% | COc1cccc2c1cc1c(=O)n(CC(=O)NC3CCCCC3)nc(C)n12
-6% | CN(C)S(=O)(=O)c1cccc(C(=O)N2CCc3ccccc32)c1
-1% | Cc1cc(NC(=O)COC(=O)[C@H](Cc2c[nH]c3ccccc23)NC(=O)c2ccc(F)cc2)no1
? | CN(C)c1ccc(/C=C2/C(=O)Nc3ccccc32)cc1
13% | CCOc1ccc(Nc2nc(N)c3ccccc3n2)cc1
-16% | NC(=O)C1CCCN(C(=O)CNC(=O)C23CC4CC(CC(C4)C2)C3)C1 (stereo not drawn)
-11% | CCOc1ccc(N(C(=O)c2snc(C(N)=O)c2N)C(C(=O)NC2CCCC2)c2ccncc2)cc1 (stereo not drawn)
8% | COc1ccc(NC(=O)CN2C(=O)c3ccccc3S2(=O)=O)cc1S(=O)(=O)N1CCOCC1
? | Cn1cccc1Cc1nnc(SCC(=O)Nc2ccc(F)cc2)n1-c1ccc(F)cc1

# Next entries follow.
VDR inhibitor | SMILES
5% | CCOC(=O)C1CCCN(C(=O)c2cn(CC)c3ccc(S(=O)(=O)N4CCCC4)cc3c2=O)C1 (stereo not drawn)
-4% | c1ccc(CNc2nc(-c3cccs3)nc3ccccc23)nc1
9% | Cc1cccc(NC(=O)C2CCN(S(=O)(=O)c3c(C)noc3C)CC2)c1
-5% | COc1cccc(C(=O)NN2C(=S)N(c3ccccc3)C(=O)C2CC(N)=O)c1 (stereo not drawn)
1% | O=C(CN1C(=O)S/C(=C\c2cccc(Cl)c2)C1=O)NC1C=CS(=O)(=O)C1 (stereo not drawn)
-6% | COCCCNC(=O)CS(=O)(=O)Cc1nc(-c2ccccc2C)oc1C
14% | O=C(NCc1ccc(Cl)cc1)c1ccc(CNS(=O)(=O)c2ccc(F)cc2)cc1
15% | COc1ccc(N(C2CSC2)S(=O)(=O)c2ccccc2)cc1
3% | N#Cc1ccc(NC(=O)C2=COCCO2)cc1
-6% | CCOC(=O)c1cc(-c2ccc(F)cc2)nc2c1c(=O)[nH]c(=O)n2Cc1ccccc1
1%&15% | Cc1ccc(NS(=O)(=O)c2ccc3c(c2)NC(=O)CCS3)cc1C
-21% | CN(C)CCCNc1ncnc2c1cnn2Cc1ccccc1Cl
-16% | C[C@@H]1C(=O)O[C@H]2C[C@@]34[C@H]5C[C@@H](C(C)(C)C)[C@]36[C@@H](OC(=O)[C@@H]6O)O[C@@]4(C(=O)O5)[C@]21O
-12% | O=S(=O)(Nc1c(O)ccc2ccccc12)c1ccc(F)cc1
-28% | COc1ccc([C@@H]2[C@@H]3C(=O)N(C(C)(C)C)C(=O)[C@@H]3[C@]3(C)C(=O)N(c4ccc(C)cc4)C(=O)N23)cc1
6% | CCCCSc1ncnc2c1sc1nc(N3CCOCC3)c3c(c12)CCCC3
0% | Cc1cc(F)c(F)c(C(=O)N2C(C)CCCC2C)c1Cl (stereo not drawn)
-5% | CC(=O)c1cccc(NC(=O)N2CCCC2C(=O)Nc2ccccc2C)c1 (stereo not drawn)

# Some of the compounds tested. The share of hits here may be higher or lower than overall.
